GALR2 agonist: GALR2 (human) receptor agonism; O43603; GALR2-expressing cells, agonist activation read-out; 0.48% of 140,000 active; activation, %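 (tested at 5 µM)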;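 active = above mean plus 3 SD of all compounds, about 5% in these data, not always enough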;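 also: 0% = vehicle buffer wells and 100% = reference agonist at full effect; tested in CHO reporter cells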
Target sequence (O43603 whole entry, looked up): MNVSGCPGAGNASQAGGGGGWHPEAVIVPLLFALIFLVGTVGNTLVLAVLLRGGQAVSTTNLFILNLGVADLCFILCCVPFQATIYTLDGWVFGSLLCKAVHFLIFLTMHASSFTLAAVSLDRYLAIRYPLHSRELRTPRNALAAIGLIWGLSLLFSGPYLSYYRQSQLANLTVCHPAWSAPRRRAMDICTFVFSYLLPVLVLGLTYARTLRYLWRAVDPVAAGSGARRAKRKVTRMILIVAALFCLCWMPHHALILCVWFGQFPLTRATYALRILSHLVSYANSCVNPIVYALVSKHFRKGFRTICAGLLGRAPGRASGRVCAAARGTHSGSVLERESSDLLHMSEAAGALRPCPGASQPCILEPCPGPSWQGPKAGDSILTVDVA
Insulin prom inh: TRM-6 insulin promoter activity inhibition. TRM-6 cells (human fetal islet line), insulin promoter-eGFP reporter, imaging; reporter expression induced with tamoxifen. inhibition, % at 2 µM. 0.9% of 130,000 active. AID 1273;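 active = inhibition above the mean plus 3 SD, with well images judged a real hit on visual review, cut at about 60% in these data, passing the limit was not always enough; inconclusive = inhibition over the cutoff but images rejected on review; inactive = inhibition not above the cutoff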
RGS16-Gao: modulates binding between human RGS16 and Galphao. O15492+P09471. 0.38% of 220,000 active. binding response (% of control), % at 10 µM. bead-based flow cytometry RGS16-Galphao binding, fluorescence; actives lie on both sides;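 active = below 25% or above 175%, edge rows of some plates excepted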;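 also: Galphao activated by GDP with aluminum fluoride before binding; 100% = wells without compound and 0% = beads without RGS; some results beyond the cut were filed as inactive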
Target sequence (O15492 whole entry, looked up): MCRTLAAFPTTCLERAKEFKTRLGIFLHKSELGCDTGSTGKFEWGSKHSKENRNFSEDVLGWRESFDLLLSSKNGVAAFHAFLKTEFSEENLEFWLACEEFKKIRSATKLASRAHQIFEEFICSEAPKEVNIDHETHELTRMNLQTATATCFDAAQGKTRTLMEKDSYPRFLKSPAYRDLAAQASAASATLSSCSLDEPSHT
Target sequence (P09471 whole entry, looked up): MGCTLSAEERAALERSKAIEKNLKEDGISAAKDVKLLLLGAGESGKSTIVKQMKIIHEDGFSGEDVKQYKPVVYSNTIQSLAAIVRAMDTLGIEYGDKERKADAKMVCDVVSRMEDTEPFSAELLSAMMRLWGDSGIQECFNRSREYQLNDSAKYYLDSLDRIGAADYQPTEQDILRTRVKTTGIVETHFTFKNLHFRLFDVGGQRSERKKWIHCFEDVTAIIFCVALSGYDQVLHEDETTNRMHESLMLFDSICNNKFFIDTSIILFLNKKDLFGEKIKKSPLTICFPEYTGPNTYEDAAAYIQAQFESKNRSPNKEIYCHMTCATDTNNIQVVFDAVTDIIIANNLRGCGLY
PKD1 kinase inh: PKD1 (human) kinase inhibition; 0.056% of 200,000 active; inhibition, %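 (about 10 µM by stock and volumes)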; PKD1 kinase fluorescence polarization assay;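 active = inhibition of 50% or more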;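 also: controls were vehicle for no effect and a reference inhibitor for full effect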
HSV augment: increases HSV replication in cells; HSV replication augmentation in cells, fold increase; maximum fold increase; 0.005% of 220,000 active; AID 1956;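 active = peak rise of 1.5-fold or more in the series; inconclusive = self-fluorescent or not available for retest; tested in PC3 cells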;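 also: first round at 10 µM; read as green reporter fluorescence; hits show the peak of a series up to 25 µM; 1 = signal of infected wells without compound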
Insulin prom inh cell count: also measured in Insulin prom inh; calls as there; normalized cell count, %; measured here: cell count, toxicity; reference of the scale not given here;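 cells exposed to compound for 48 h; stained nuclei by imaging scaled within each plate; lower means fewer cells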
HSV augment primary fold: further read-out of HSV augment, marked with its call; fold increase; compound at 10 µM; measured here: primary screen fold increase 10 uM; tested in PC3 cells;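 GFP signal in the first replicate; 1 = infected wells without compound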
* marks the source's active call; other numbers are inactive results; i = inactive; u = inconclusive; x = no result given.

SMILES | GALR2 agonist | Insulin prom inh | Insulin prom inh cell count | RGS16-Gao | PKD1 kinase inh | HSV augment | HSV augment primary fold
CCOC(=O)c1cc(C)sc1NC(=O)CCC(=O)O | 0.7 | 43 | 77 | 102 | -9 | i | 1
CCCc1sc(N)nc1-c1ccc(Cl)cc1 | 0.0 | x | x | 99 | -4 | i | 1
CCOC(=O)C1(C(F)(F)F)N=C(c2ccccc2F)OC(N(C)C)=N1 (centres undefined) | x | x | x | 104 | x | i | 0.99
CCOc1ccc(NC(=O)N2CCN(S(C)(=O)=O)CC2)cc1 | x | x | x | 108 | 3 | i | 1
Cc1ccc(-c2nnc3c4ccccc4c(C)nn23)cc1NC(=O)c1ccco1 | 1.8 | 17 | 147 | x | -1 | x | x
COc1ccc(C2C(C(=O)Nc3ccccc3)=C(C)Nc3nc(CCCO)nn32)cc1 (centres undefined) | -2.4 | x | x | 103 | -1 | i | 0.97
CCCCCn1nc(C)c(/C=N\NC(=O)c2cc(C)oc2C)c1C | -0.4 | 85* | 134* | 99 | -7 | i | 0.9
Fc1cccc(Cl)c1CNC(c1ccccc1)c1ccccc1 | -1.7 | 17 | 86 | 100 | 6 | i | 0.9
C/C(=N\NC(=O)CSc1nc2ccccc2s1)c1ccco1 | -0.3 | 33 | 144 | 115 | -8 | i | 0.9
O=C(Nc1ccc(Oc2ccc(NC(=O)Nc3ccc([N+](=O)[O-])cc3)cc2)cc1)Nc1ccc([N+](=O)[O-])cc1 | x | x | x | 106 | x | i | 0.69
COC(=O)C1=C(C)NC(=O)/C1=C\c1ccc2c(c1)OCO2 | 0.1 | -25 | 84 | 97 | -13 | i | 0.65
Cc1n[nH]c(C)c1N1C(=O)c2cccc3c(Br)ccc(c23)C1=O | -0.6 | 37 | 55 | 71 | -1 | u | x
COCCNC(=O)c1ccc2snnc2c1 | -0.3 | -43 | 102 | 97 | -13 | i | 0.91
Cc1oc2ccccc2c1CNC(=O)N(C)C | x | x | x | 100 | x | i | 0.9
CCCOP(=O)(c1ccc(N(C)C)cc1)C(Nc1ccccc1)c1ccc(N(C)C)cc1 (centres undefined) | 0.2 | 45 | 93 | 100 | -11 | i | 0.92
CCOc1ccc(CCNC(=O)C2CCCN(S(=O)(=O)c3c(C)n[nH]c3C)C2)cc1OCC (centres undefined) | -1.0 | x | x | 104 | -11 | i | 1.1
O=C(CCCc1cccs1)Nc1nc2c(s1)CCCC2 | -2.2 | x | x | 94 | -1 | i | 0.96
CC1CCCCC1NC(=O)C1CCCN1S(=O)(=O)c1cccc2nsnc12 (centres undefined) | -1.4 | x | x | 103 | 4 | i | 0.96
O=C(O)C(Cc1ccc(O)cc1)N1C(=O)C2CCCCC2C1=O (centres undefined) | x | x | x | 100 | x | i | 1.4
Cc1nc(SCC(=O)Nc2ccccc2C(F)(F)F)c(C#N)c(C)c1CC(=O)c1ccc(Br)cc1 | -1.6 | 4 | 132 | 102 | 0 | i | 1
CC(C)(C)c1ccc(C(=O)N/N=C/c2cccc(Cl)c2)cc1 | -1.5 | x | x | 100 | 11 | i | 0.7
N/C(=N\c1nc2ccccc2o1)NC(=O)c1ccc(F)cc1 | 0.1 | 12 | 168 | 102 | -7 | i | 0.83
COc1ccc(N2CCN(Cc3nc4scc(-c5cccs5)c4c(=O)[nH]3)CC2)cc1 | x | -75 | 119 | 104 | -1 | i | 0.99
O=C(O)C/C(=C\c1cccc(NC(=O)c2ccccc2Cl)c1)c1nc2ccccc2s1 | x | x | x | 96 | x | i | 0.96

One compound at a time, from the list above:
CC(C)(C)c1ccc(C(=O)N/N=C/c2cccc(Cl)c2)cc1 is listed with GALR2 agonist: -1.5; Insulin prom inh: x; Insulin prom inh cell count: x; RGS16-Gao: 100; PKD1 kinase inh: 11; HSV augment: i; HSV augment primary fold: 0.7
Cc1oc2ccccc2c1CNC(=O)N(C)C is listed with GALR2 agonist: x; Insulin prom inh: x; Insulin prom inh cell count: x; RGS16-Gao: 100; PKD1 kinase inh: x; HSV augment: i; HSV augment primary fold: 0.9

Next entries follow.
SMILES | GALR2 agonist | Insulin prom inh | Insulin prom inh cell count | RGS16-Gao | PKD1 kinase inh | HSV augment | HSV augment primary fold
NC(=O)c1cc(-c2ccccc2)nc(N2CCCCCC2)n1 | -1.4 | x | x | 99 | -2 | i | 0.9
C/C(=N\O)c1ccc2c3c([nH]c2c1)CCCC3 | -1.3 | x | x | 93 | 1 | i | 0.96
COc1ccc(-c2cc(C(=O)OC3CCOC3=O)c3ccccc3n2)cc1 (centres undefined) | -0.9 | 71 | 61 | 64 | 1 | i | 0.97
CCNC(=S)NNC(=O)CCn1cc(C)cn1 | -1.7 | 25 | 122 | 108 | -14 | i | 1
Cc1ccc(Cl)cc1N1CCN(Cc2cc3c(cc2O)CCC3)CC1 | -0.9 | -10 | 108 | 101 | 0 | i | 0.92
Cc1c(Nc2nc3ccccc3nc2NS(=O)(=O)c2ccccc2)c(=O)n(-c2ccccc2)n1C | -0.9 | x | x | 114 | -5 | i | 0.91
COC(=O)c1cc2occc2n1Cc1nc(-c2ccccc2Cl)oc1C | -0.8 | -7 | 130 | 100 | -1 | x | x
N#CCSc1nc2c(c(=O)n1Cc1ccccc1)C1(CCCC1)Cc1ccccc1-2 | -1.0 | -57 | 26 | 113 | -5 | u | x
CCOc1cc(/C=C2/C(=N)N3C=CSC3=NC2=O)ccc1OCCCOc1ccccc1C | -2.7 | 17 | 100 | 98 | -10 | i | 0.55
O=C(COC(=O)c1cccnc1Cl)c1ccc(OC(F)F)cc1 | x | 13 | 166 | 86 | -1 | i | 0.98
CS(=O)(=O)N1CCc2cc(C(=O)NC3CC3)ccc21 | x | x | x | 98 | -6 | i | 0.83
Cc1ccc(C(=O)N/N=C\c2ccccn2)cn1 | x | x | x | 96 | x | i | 1.2
COc1cccc(C(=O)NCC(=O)N2CCC(C)CC2)c1 | -1.2 | -7 | 115 | 100 | -18 | i | 1
CC(=O)c1c(C)nc(-c2cccc([N+](=O)[O-])c2)n1O | x | x | x | 91 | -2 | i | 0.94
COC(=O)c1ccccc1NC(=O)C1CCCO1 (centres undefined) | 0.3 | -27 | 91 | 119 | -9 | i | 1
COc1ccc(OC)c(NC(=S)N2CCc3ccccc3C2)c1 | x | -47 | 72 | 103 | -6 | i | 0.94
CC(C)c1onc(C(=O)NCc2ccc(Cl)cc2)c1[N+](=O)[O-] | -0.6 | x | x | 101 | 26 | i | 0.96
CSCCC(NC(=O)c1ccccc1)C(=O)NC1CC1 (centres undefined) | -3.1 | 62 | 142 | 108 | -3 | i | 0.83
NS(=O)(=O)c1ccc(NC(=O)CN2CCCN(S(=O)(=O)c3ccc(F)cc3)CC2)cc1 | x | x | x | 113 | -6 | i | 1
O=C(CSCc1ccc(Cl)cc1Cl)Nc1ccccc1C(=O)Nc1ccc(C(=O)O)cc1 | x | x | x | 103 | 6 | i | 1
Nc1nnn(CC(=O)N/N=C/c2cccc3ccccc23)n1 | -1.4 | 10 | 62 | 101 | 6 | i | 1.1
NC(=O)C1(N2CCCCC2)CCN(C(=O)NC23CC4CC(CC(C4)C2)C3)CC1 | -2.3 | x | x | 104 | 6 | i | 0.77
Cc1ccc(SC(=O)c2c(C)noc2-c2cc(C)on2)cc1 | x | x | x | 99 | x | i | 0.84
Cc1ccnc(NC(=O)c2ccoc2C)c1 | -1.2 | 32 | 85 | 98 | -8 | i | 0.97
Cc1cccc(Cn2ccc(-c3ccc(Cl)cc3)c(C#N)c2=O)c1 | -2.7 | 0 | 146 | 113 | 9 | i | 0.96
O=C(NCCCN1CCN(c2ccc(F)cc2)CC1)Nc1ccc([N+](=O)[O-])cc1 | x | -62 | 105 | 104 | -9 | i | 1
CCC1=NN(C(=O)Cc2ccc([N+](=O)[O-])cc2)C(O)(c2ccc(Br)cc2)C1 (centres undefined) | 0.2 | -27 | 114 | 96 | 1 | i | 0.94
COCCn1nnnc1C(c1cc2cc(C)ccc2[nH]c1=O)N1CCCCCC1 (centres undefined) | -3.2 | 35 | 108 | 97 | 1 | i | 0.92
COc1ccc(N2C(=O)C3CCCN3C2c2ccc(Cl)cc2)cc1 (centres undefined) | -3.0 | x | x | 107 | 10 | i | 0.94
Clc1ccc(C[n+]2cc(-c3ccccc3)n3c2CCC3)cc1 | x | x | x | 108 | x | i | 1
CCCCNS(=O)(=O)c1ccc2nc(-c3cccnc3)cc(C(=O)NCCCOC)c2c1 | x | x | x | 101 | -3 | i | 1
Cc1cccc2cc(CN(C(=S)NCC(C)C)C3CCCC3)c(=O)[nH]c12 | -1.9 | 30 | 106 | 113 | -5 | i | 1
NC(=O)C1(N2CCCCC2)CCN(C(=S)Nc2ccc(S(N)(=O)=O)cc2)CC1 | x | x | x | 99 | 3 | i | 1
CC(C)(C)c1ccc(C(=O)NCc2nnc(SCC(=O)N3CCCc4ccccc43)n2-c2ccccc2)cc1 | -0.4 | -15 | 134 | 101 | 0 | i | 1
C=CCOC(=O)COc1ccc2c(C)c(CC)c(=O)oc2c1 | -2.8 | 3 | 93 | 92 | 11 | i | 0.67
CCOC(=O)c1c(NC(=O)C(C)Sc2cn(C)c3ccccc23)sc2c1CCC2 (centres undefined) | -1.2 | 50 | 91 | 67 | 1 | x | x

Exported with values under each structure: entries from further up.
Values run as follows: GALR2 agonist	Insulin prom inh	Insulin prom inh cell count	RGS16-Gao	PKD1 kinase inh	HSV augment	HSV augment primary fold
C/C(=N\NC(=O)CSc1nc2ccccc2s1)c1ccco1
→ -0.3	33	144	115	-8	i	0.9
O=C(Nc1ccc(Oc2ccc(NC(=O)Nc3ccc([N+](=O)[O-])cc3)cc2)cc1)Nc1ccc([N+](=O)[O-])cc1
→ x	x	x	106	x	i	0.69
COC(=O)C1=C(C)NC(=O)/C1=C\c1ccc2c(c1)OCO2
→ 0.1	-25	84	97	-13	i	0.65
Cc1n[nH]c(C)c1N1C(=O)c2cccc3c(Br)ccc(c23)C1=O
→ -0.6	37	55	71	-1	u	x
COCCNC(=O)c1ccc2snnc2c1
→ -0.3	-43	102	97	-13	i	0.91
Cc1oc2ccccc2c1CNC(=O)N(C)C
→ x	x	x	100	x	i	0.9
CCCOP(=O)(c1ccc(N(C)C)cc1)C(Nc1ccccc1)c1ccc(N(C)C)cc1 (centres undefined)
→ 0.2	45	93	100	-11	i	0.92

(more compounds)
SMILES | GALR2 agonist | Insulin prom inh | Insulin prom inh cell count | RGS16-Gao | PKD1 kinase inh | HSV augment | HSV augment primary fold
NS(=O)(=O)c1ccc(CCn2c(=S)[nH]c3ccc(F)cc3c2=O)cc1 | x | 45 | 164 | 104 | 2 | i | 0.86
COc1ccc(C(=O)c2cc([N+](=O)[O-])ccc2N2CCOCC2)cc1 | 2.3 | -257 | 1 | 69 | -7 | i | 0.65
C=C(C)Cn1c(SCC(=O)NCc2ccco2)nc2sc3c(c2c1=O)CCC3 | -1.7 | -46 | 110 | 84 | 2 | i | 0.99
N#C/C(=C/c1ccc(N2CCCCCC2)o1)c1cccc(F)c1 | -1.9 | -1 | 94 | 77 | -3 | i | 0.92
COc1ccc2c(c1)CCC/C2=N\Nc1nc(C(=O)NN)cs1 | x | x | x | 98 | x | i | 1
Cc1c(N(C(=O)c2ccccn2)C2(C(=O)NC3CCCCC3)CCCCC2)c(=O)n(-c2ccccc2)n1C | x | -27 | 68 | 107 | -4 | i | 1.1
Cn1cnnc1SCc1ccc(C(=O)N=Nc2c(O)n(Cc3ccc(Cl)cc3)c3ccccc23)cc1 | 3.9 | 25 | 130 | 99 | -9 | i | 0.58
COc1ccc(-c2nc(CS(=O)CC(=O)NC3CCCc4ccccc43)c(C)o2)cc1OC (centres undefined) | -2.4 | x | x | 100 | -12 | i | 0.87
S=c1ccc2ccccc2[nH]1 | x | 7 | 91 | 106 | -6 | i | 0.93
COc1ccc(C(=O)OCC[N+]2(C)CCCCC2)cc1 | x | 7 | 81 | 68 | -5 | i | 0.98
COc1ccc(CCNC(=O)c2c(C)nc3ccccn23)cc1 | x | -45 | 132 | 116 | -4 | i | 0.99
CC(CCc1ccccc1)NC(=S)NC(=O)c1ccco1 (centres undefined) | x | -53 | 68 | 96 | 10 | i | 1.1
Cc1ccc(S(=O)(=O)NC2CCCCC2)c(C)c1NS(C)(=O)=O | x | x | x | 102 | 2 | i | 0.97

Source: PubChem (several laboratories)
